Beta cell apopt: inhibitors of cytokine-induced beta cell apoptosis, primary screen, luminescence; INS-1E cytokine-induced death, ATP luminescence, 48 h; percent of positive-control rescue, neutral wells zero; protection from apoptosis, % (test concentration not listed); 0.8% of 300,000 active;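 active = all replicates at 75% or more, or half of them and the mean; inconclusive = half reach 75% but not the mean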;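 note: 0% = cytokine-treated negative control wells and 100% = positive control rescue; higher means more ATP so stronger rescue from cytokine killing; wells of about 40 µL received 100 nL stock; the first replicate is given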
RanGTP-Imp inh: inhibitors of RanGTP-importin-beta interaction, primary screen, biochemical, FRET, CFP-Ran, YFP-importin-beta, homogeneous. cell-free CFP-Ran/YFP-importin-beta FRET ratio. Ran GTPase (GTP-bound) - importin-beta complex. inhibition, % (no concentration beside the values). 1.1% of 300,000 active;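 active = most replicates above 15%; inconclusive = exactly half above 15%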;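 note: 0% = DMSO wells and 100% = Ran loaded with GDP instead of GTP; wells of about 40 µL received 100 nL stock; the first replicate is given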
AF4-AF9 inh: inhibitors of AF4 peptide binding to AF9, primary screen, biochemical, AlphaScreen, biotin-AF4 peptide, FLAG-AF9, single point; inhibition, % at 10 µM; Protein AF-9 (Homo sapiens), P42568; 0.47% of 350,000 active;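 active = every replicate reaching a set inhibition limit, whatever the replicate mean, cut at about 25% in these data; inconclusive = mean inhibition reaches that limit but some replicates miss it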;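 note: 0% = plate neutral control median and 100% = total signal loss; the record names both 10 and 1 µM as test concentration; the first replicate is given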
T cruzi repl: inhibitors of intracellular T. cruzi growth, primary screen, luminescence, NIH3T3 host cells; T. cruzi beta-gal in NIH3T3, 90 h; inhibition, % (no concentration beside the values); 1.4% of 300,000 active; AID 1885, 2009;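 active = mean inhibition across valid replicates above about 55%, limit read from the data; inconclusive = mean below that limit but half or more replicates reach it; inactive = mean below it, under half of replicates reach it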;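 note: signal also drops with host cell toxicity which is not excluded here; 0% = plate median of DMSO wells and 100% = zero luminescence signal; higher percent means less beta-gal luminescence so fewer parasites; stock transfer was 50 nL into about 50 µL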
LANA-H2B inh: blockers of LANA interaction with H2A/H2B – biochemical, FP readout, HTS, primary screen; Protein LANA1 (Human herpesvirus 8 type P (isolate GK18)), Q9QR71; cell-free LANA-H2A/H2B peptide, fluorescence polarization; inhibition, % (test concentration not listed); 0.6% of 320,000 active; AID 2629, 2010; in the data active = inhibition mostly above about 10%, no sharp cut-off; inactive = mostly below about 6.7%;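 note: stock transfer was 7.5 nL into about 10 µL; 0% = median of vehicle wells and 100% = median of positive control wells; one replicate is shown; the record names a cut of 25% in any replicate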
Target sequence (Q9QR71 whole entry, looked up): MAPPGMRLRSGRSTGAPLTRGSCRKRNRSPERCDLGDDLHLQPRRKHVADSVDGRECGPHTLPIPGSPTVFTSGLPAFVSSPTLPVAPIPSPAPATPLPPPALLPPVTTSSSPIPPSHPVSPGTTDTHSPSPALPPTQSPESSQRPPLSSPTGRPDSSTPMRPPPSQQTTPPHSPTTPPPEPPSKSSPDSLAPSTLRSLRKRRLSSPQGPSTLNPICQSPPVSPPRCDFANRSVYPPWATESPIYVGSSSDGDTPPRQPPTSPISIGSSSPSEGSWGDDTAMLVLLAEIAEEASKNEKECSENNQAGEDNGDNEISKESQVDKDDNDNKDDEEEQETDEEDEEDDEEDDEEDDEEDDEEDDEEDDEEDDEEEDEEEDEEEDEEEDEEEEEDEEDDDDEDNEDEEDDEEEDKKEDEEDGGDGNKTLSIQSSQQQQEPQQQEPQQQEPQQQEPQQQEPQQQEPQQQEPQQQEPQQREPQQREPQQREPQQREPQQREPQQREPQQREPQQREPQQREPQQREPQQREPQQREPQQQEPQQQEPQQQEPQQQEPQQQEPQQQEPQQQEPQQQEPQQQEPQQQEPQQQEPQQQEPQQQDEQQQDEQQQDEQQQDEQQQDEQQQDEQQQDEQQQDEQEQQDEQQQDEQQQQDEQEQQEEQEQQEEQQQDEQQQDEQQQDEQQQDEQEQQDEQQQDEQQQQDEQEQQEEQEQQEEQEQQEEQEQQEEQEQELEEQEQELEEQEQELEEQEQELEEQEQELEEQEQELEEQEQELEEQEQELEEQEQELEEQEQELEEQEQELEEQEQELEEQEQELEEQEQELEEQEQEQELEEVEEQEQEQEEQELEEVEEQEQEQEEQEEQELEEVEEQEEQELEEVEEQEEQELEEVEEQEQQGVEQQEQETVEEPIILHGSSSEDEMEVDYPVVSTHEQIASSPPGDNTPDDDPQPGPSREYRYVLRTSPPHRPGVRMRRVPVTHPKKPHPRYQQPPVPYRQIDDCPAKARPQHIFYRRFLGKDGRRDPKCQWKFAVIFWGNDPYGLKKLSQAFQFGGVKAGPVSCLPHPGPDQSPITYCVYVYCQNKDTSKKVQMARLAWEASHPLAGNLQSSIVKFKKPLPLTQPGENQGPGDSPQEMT
Vif A3G: inhibitors of Vif binding to APOBEC3G peptide, primary screen, biochemical, TR-FRET, GST-Vif 1-94, biotin-A3G peptide, dose response retest (AID 1117319); Virion infectivity factor (Human immunodeficiency virus type 1 group M subtype B (isolate …; TR-FRET GST-Vif / biotin-A3G peptide binding; higher % means a stronger effect; test concentration not given here; strong numbers were not always called active; inhibition, %; hits with a dose series show IC50 in µM; 0.57% of 260,000 active;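 active = above the screen mean plus three standard deviations and confirmed in dose response; inconclusive = results disagree or hit not tested in dose response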;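 note: Vif residues 1-94 fused to GST binding biotinylated APOBEC3G peptide 110-148; 0% = full assay without inhibitor and 100% = GST in place of GST-Vif; retest series ran down from 100 µM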
Calb FLC: C. albicans growth inhibition with fluconazole, primary screen, CaCi-2 strain, Alamar Blue fluorescence | C. albicans CaCi-2 (fluconazole-resistant clinical isolate) + fluconazole, 48 h | growth inhibition, % (concentration not given with the values) | 0.57% of 300,000 active | AID 1979, 2009;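 active = most replicates above 75%; inconclusive = exactly half above 75%; inactive = most below 75%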;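 note: all wells also contain fluconazole at 8 µg/ml as a sub-toxic cotreatment; 0% = median of DMSO wells and 100% = median of geldanamycin control wells; wells of about 8 µL received 7.5 nL stock; the first replicate is given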
Bfl-1 A1 inh: caspase 3/7 activation in MEF A1-2A-BIM cells, primary screen, A1 inhibitor project, cell-based, luminescence, HTS | caspase activation, % (concentration not given with the values) | Caspase-Glo 3/7 luminescence, 3 h; percent of clofoctol response, vehicle zero | AID 2462, 2010 | 0.066% of 330,000 active;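 active = over half of replicate activation scores above 10%, or exactly half above 10 with the replicate mean above 10; inconclusive = replicate mean below 10 yet half the replicates above 10; inactive = over half of replicates below 10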;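 note: wells of about 30 µL received 50 nL stock; many hits fall short of the cut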
Starred values were filed as active, the others as inactive; ? = inconclusive; / = no result given; & = joins results of further samples. Compounds as they come. Share with any hit: about 4.3%.

SMILES	Beta cell apopt	RanGTP-Imp inh	AF4-AF9 inh	T cruzi repl	LANA-H2B inh	Vif A3G	Calb FLC	Bfl-1 A1 inh
O=S(=O)(Nc1nccs1)c1cnc(Cl)c(Br)c1	0	-0.6	-7.0	-1	-1.4	/	-3	-1.2
O=C(NCC1CCCO1)Nc1ccc(Cl)cc1 (stereo not given)	-4	4.1	/	-3	-0.4	-9%	-3	0.2
O=S(=O)(Nc1ccc(N2CCCCC2)cc1)c1ccc(F)cc1F	22	-3.2	11	10	5.0	7%	-3	-0.2
CCCn1c(SCC(=O)NC2CC2)nnc1-c1cccs1	/	0.9	0.1	3	-1.9	10%	-5	-0.7
O=C(Nc1ccc(F)cc1)c1ccc(S(=O)(=O)N2CCCC2)cc1	0	0.7	3.0	-12	2.6	/	-11	1.0
CCc1ccc(N2CC34C=CC(O3)C(C(=O)OC)C4C2=O)cc1 (stereo not given)	-6	3.1	2.8	-12	1.8	2%	-5	0.2
COc1ccc(NC(=O)C2CCC(CNc3c(N4CCC(C)CC4)c(=O)c3=O)CC2)cc1OC (stereo not given)	-9	2.3	5.7&-1.5	-6	0.7	5%&-2%	13	-0.1
Cc1nn(Cc2ccccc2)c(N)c1C#N	3	1.5	/	-4	-4.6	21%	-6	-1.0
COc1cc(NC(=S)NCc2cccnc2)cc(OC)c1	1	2.3	-1.1	-8	-0.1	29%	-6	0.0
Cc1nc(N2CCOCC2)nc2c1CCC2	-3	1.6	-1.9	-1	1.8	4%	59	-0.5
O=C(N/N=C/c1ccccn1)c1ccc(Cl)cc1	1	0.5	5.8	42	3.5	/	2	-0.9
CC1CCCCC1NC1=NCCCS1 (stereo not given)	-3	0.8	/	-5	0.1	-2%	-6	0.5
Cc1cnc(C(=O)Nc2ccc(N3CCOCC3)cc2)cn1	0	6.1	/	1	0.2	28%	-3	0.1
Cc1cc(NC(=O)COc2cccc([N+](=O)[O-])c2)no1	-3	4.1	1.9	-4	8.7	/	1	0.2
Cc1cc(C(=O)COC(=O)C23CC4CC(CC(O)(C4)C2)C3)c(C)n1C	-12	/	6.1	/	1.0	-8%	/	0.7
Cc1nn(-c2ccccc2)c(N)c1C(O)(C(F)(F)F)C(F)(F)F	9	6.7	/	-6	2.7	/	0	0.9
CSc1nc(Cl)c(Cc2ccc(OC(C)C)cc2)c(N(C)C)n1	11	2.2	0.9	-33	1.1	/	-6	-0.1
O=C(c1ccco1)N1CCN(C(=O)C(Sc2ccccc2)c2ccccc2)CC1 (stereo not given)	-9	?	/	-4	0.4	-5%	11	1.0
CCCNC(=O)COc1ccc(-c2nn(C)c(=O)c3ccccc23)cc1	-2	3.2	-8.3	-3	1.0	-6%	4	0.7
O=C(NCc1csc(-c2cccs2)n1)Nc1ccc(C(F)(F)F)cc1	-2	3.7	-1.7	-10	3.0	/	-3	-1.8
O=C(CSc1nnc2n1CCCN2)c1ccccc1	-3	-5.0	0.3	-9	2.3	13%	-4	-0.4
COC(=O)CCC(=O)OC1(C)C(=O)C=C2C=C(C3CC3)N(Cc3ccccc3)C=C2C1=O (stereo not given)	-2	12	/	13	1.2	?	-2	0.5
C/C(N)=C(/C#N)C(=O)CSc1nnc(Nc2ccccc2C)s1	-8	-3.2	/	10	-0.4	5%	-1	-1.3
CCOC(=O)C1CCCN(S(=O)(=O)c2ccc3ccccc3c2)C1 (stereo not given)	-10	-0.5	/	-5	3.7	/	-16	0.8
CC(=O)CC(C)(C)Nc1nc2cc([N+](=O)[O-])ccc2o1	-5	-3.0	/	5	4.8	17%	-13	1.1
COc1ccc([C@@H]2[C@H]3CN(C(C)=O)CC=C3C(C#N)=C(N)C2(C#N)C#N)c2ccccc12	/	4.0	/	14	/	24%	34	/
O=C(c1cc2ccccc2oc1=O)N1CCN(c2ccc(N3CCOCC3)nn2)CC1	/	4.8	-3.5	-18	-1.9	>100µM*	6	0.2
CC(C)CC(=O)Nc1cccc2c1C(=O)N(c1ccccc1)C2=O	-20	-0.5	/	-5	-1.0	1%	-2	0.8
COc1ccc(CC(=O)N(C)CC(=O)Nc2c(C)cccc2C)cc1S(=O)(=O)N1CCOCC1	0	/	11	/	6.7	1%	/	0.9
O=C(CCNC(=O)C1CCN(S(=O)(=O)c2ccc(F)cc2)CC1)NCc1ccccc1Cl	-2	5.3	-1.3	16	-4.0	/	2	0.5
Cc1csc(NC(=O)CSc2nnc(Cc3cccn3C)n2CCc2ccccc2)n1	0	/	9.8	/	-2.5	?	/	-0.1
COc1ccc(C)cc1S(=O)(=O)N(C)CC(=O)Nc1ccccc1	-7	5.7	/	-32	0.6	1%	-4	1.3
Cc1ccccc1CNC(=O)c1ccccc1C	0	8.5	/	-17	0.1	3%	-4	0.0
CCOc1ccc(C(=O)NN2C(=S)NC(C)(C)C=C2C)cc1	-19	0.2	-10	-3	-1.8	-1%	-4	0.3
Cn1c(Cn2cnc3ccccc32)nnc1SCc1ccccc1	1	0.8	/	0	12	-12%	-5	-0.3
COC(=O)c1c(C)[nH]c(C(=O)CN(C)CC(=O)Nc2cccc(F)c2)c1C	-8	/	0.8	/	-2.3	-5%	/	1.6
Cc1nnc(Sc2c(N)n(C)c(=O)n(C)c2=O)s1	1	-1.2	/	-24	-6.8	4%	-3	0.9
CC(C)(C)c1ccc(C(=O)NCC(=O)OCC(=O)c2ccc3c(c2)-c2ccccc2C3)cc1	1	1.2	/	-6	1.8	/	8	-0.4
Cc1ccc(-n2nc3c(=O)n(CCCC(=O)NCc4ccc(C)o4)nc(C)c3c2C)cc1	5	2.8	0.1	2	4.2	/	5	2.8
O=C(O)CSCc1nc2ccccc2s1	3	5.2	/	-5	-0.4	1%	-14	0.8
Cc1nn(CC(=O)NCCc2ccccc2)c(=O)c2cccn12	/	7.1	-3.2	-12	-3.0	/	-7	0.6
O=C(CNC(=O)C1COc2ccccc2O1)N/N=C/c1ccc(O)cc1O (stereo not given)	20	-4.9	-5.2	-26	-6.0	/	8	-0.1
O=c1c2ccccc2sn1-c1ccc(S(=O)(=O)N2CCCCC2)cc1	-9	6.3	/	43	-1.2	/	-2	-3.1
CCN(C(=O)CN1C(=O)/C(=C/c2ccccc2F)SC1=S)C1CCS(=O)(=O)C1 (stereo not given)	-12	3.7	5.3	10	3.2	/	4	0.8
O=C(NC1CCCc2ccccc21)C1CCC(CNc2c(N3CCOCC3)c(=O)c2=O)CC1 (stereo not given)	/	/	-2.5	/	2.1	1%	/	0.9
CCOc1ccc(CNc2ncnc(N)n2)cc1	-12	3.3	/	-12	-0.3	0%	0	0.5
C/C(CC(=O)NC12CC3CC(CC(C3)C1)C2)=N\NC(=O)c1ccc(F)cc1	0	-1.7	0.6	-13	2.9	/	-7	0.0
CCCOC(=O)c1ccc(OCC(O)CN2CCN(C(=O)c3ccccc3)CC2)cc1 (stereo not given)	-9	4.4	/	-1	-1.0	-1%&12%	0	-0.6
CCN(Cc1ccncc1)Cc1cn[nH]c1-c1ccc(OC)cc1F	-3	-6.0	1.8	19	-1.7	5%	?	-0.4
COc1ccc(CCNC(=O)c2sc3ccccc3c2Cl)cc1OC	14	0.2	-4.1	-23	-4.1	/	3	0.8
CCc1nc2ccccc2n1Cc1ccccc1F	-6	6.1	2.7	-7	0.1	0%	17	-0.1
CC(C)c1ccc(S(=O)(=O)c2n[nH]n3c2nc(=O)c2ccccc23)cc1	-2	-1.4	/	-7	-7.4	25%	47	-1.2
CCOC(=O)c1cc2c(=O)n3cccc(C)c3nc2n(CCCOC)c1=NC(=O)c1cccnc1	/	129*	/	40	1.8	-9%	-11	-0.9
O=C(OCC(=O)N1CCN(C(=O)c2ccco2)CC1)c1sc2cc(F)ccc2c1Cl	-4	5.0	/	8	-7.7	-2%	/	0.9
Cc1ccc(S(=O)(=O)Cc2c(C)noc2C)cc1	-1	6.2	-2.5	7	3.4	4%	19	-0.3
Cc1ccc(S(=O)(=O)N2CCOCC2)cc1NC(=O)CSc1nccn1C	3	-2.0	/	-3	-6.6	-1%	-12	0.3
CN1N=C(C(=O)N2CCN(c3ccc([N+](=O)[O-])cc3)CC2)CCC1=O	-8	-1.3	-2.4	4	4.8	8%	24	0.6
Cc1cc(OCC(=O)Nc2nnc(C3CC3)s2)ccc1[N+](=O)[O-]	-6	/	-0.8	/	-3.5	11%	-6	-0.1
Cc1cc(Br)cc(C)c1NC(=O)c1ccc(C#N)cc1F	2	-1.8	2.4	1	-6.2	0%	1	1.0
NC(=O)c1ccsc1NC(=O)c1ccc(S(=O)(=O)N2CCCC2)cc1	0	?	2.1	-18	1.0	-5%	5	-3.8

(listing goes on)
SMILES	Beta cell apopt	RanGTP-Imp inh	AF4-AF9 inh	T cruzi repl	LANA-H2B inh	Vif A3G	Calb FLC	Bfl-1 A1 inh
CC(=O)N1CCN(c2ccc(Nc3nc(C)nc4c3oc3ccccc34)cc2)CC1	/	-1.6	/	6	-5.9	/	-2	1.0
COc1cccc(Nc2nnc(SCC(=O)Nc3sccc3C(N)=O)s2)c1	0	-1.6	5.3	8	-2.5	8%	-12	0.1
COc1ccccc1CN1CCc2c([nH]c3ccccc23)C1	-1	-6.9	9.7	17	-1.6	0%	-5	1.1
CCCOc1ccc(/C=N/NC(=O)c2nnn(-c3nonc3N)c2-c2cccs2)cc1OC	-1	0.7	-0.8	-6	-1.2	/	4	2.8
Cc1cccc(-c2cc3nc(-c4ccccc4)cc(N4CCC5(CC4)OCCO5)n3n2)c1	/	4.7	/	20	1.9	3%	0	-0.1
FC(F)(F)c1cccc(N2CCN(C(=S)NC3CCCCC3)CC2)c1	16	-1.7	/	16	0.6	/	1	0.4
COc1cccc(-c2c[nH]c(=O)[nH]c2=O)c1	0	-2.4	-1.9	2	4.5	-12%	-14	-0.1
COc1ccc(CN(C)C(=O)c2ccc(NS(=O)(=O)c3ccc(F)cc3)cc2)c(OC)c1OC	95*	-4.2	1.9	6	-2.0	-2%	4	-0.3
O=C(NCC1(N2CCCCC2)CCCCC1)c1ccc(NS(=O)(=O)c2ccc(F)cc2)cc1	/	-1.3	-1.8	-16	-0.1	-2%	-8	0.6
O=C1N=C(N2CCCCC2)SC1=C1CCCC1	4	?	/	-3	3.1	7%	6	-4.0
Cc1cc(NS(=O)(=O)c2ccc(CC(C)C)cc2)no1	0	0.6	/	-7	-1.7	-6%	4	0.0
COc1cc(NS(=O)(=O)c2ccc(F)cc2)c(C(=O)O)cc1OC	1	-4.5	/	-4	-2.0	14%	-7	-0.6
CC(=O)Nc1ccc(NC(=O)CN(c2ccc([N+](=O)[O-])cc2)S(=O)(=O)c2ccccc2)cc1	6	?	8.6	14	-0.7	0%	-1	0.6
CCC(NS(=O)(=O)c1cn(C)nc1C)c1ccccc1 (stereo not given)	/	-4.6	-0.6	-9	-8.2	-4%	-6	1.9
COc1ccc(CNc2ncc(-c3ccccc3)n2C)c(OC)c1OC	-12	-1.1	7.9	3	1.5	1%	-6	0.9

Screens as filed in PubChem BioAssay.
